# Methyltransferases: Primary Screen for Target Class Profiling of Small Molecule Inhibitors of Methyltransferases; calls only at 40 µM; actives 3.9% (n = 25,000); purified enzyme, MTase-Glo SAH luminescence; stronger effect = lower value; active = -50% or lower on at least one of six enzymes; inconclusive = the cases between; inactive = as a rule above -30% on all six;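 also: enzymes were COMT GAMT GNMT HNMT NNMT and PNMT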
#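 Each enzyme was reacted with SAM and its substrate, with compounds tested once at 40 uM; SAH formed was read by MTase-Glo luminescence.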
# Calls only; i = inactive; ? = inconclusive; + = active, no number. % is scaled to controls: 0 for no effect and ±100 for the full control effect. A portion of the library; the hit share may differ from the screen's.
SMILES,Methyltransferases
COc1ccc(N2C(=O)c3ccc(-c4ccco4)n3CC2(C)C(=O)NCc2ccc(Cl)cc2)cc1OC (stereo not given),i
CCCn1c(=O)c2cc(Cl)ccc2n2c(=O)n(CC(=O)c3ccc(C)cc3)nc12,i
COC(=O)C[C@@H]1C(C(=O)O)=CO[C@@H](O[C@@H]2O[C@H](CO)[C@@H](O)[C@H](O)[C@H]2O)/C1=C\COC(=O)/C=C\c1ccccc1,i
O=C(CCc1nnc2n(Cc3ccc(Cl)cc3)c(=O)c3ccccc3n12)NCCc1c[nH]c2ccccc12,i
C=CCn1c(=O)c2ccc(C(=O)NC(C)C)cc2n2c(=O)n(CC(N)=O)nc12,i
CCc1cc2c(cc3n2CC(C)(C(=O)NC2CCCCC2)N(CC(C)c2ccccc2)C3=O)s1 (stereo not given),i
Cn1cc(CN2C[C@H](C(=O)Nc3nccs3)C[C@@H]2c2cccc(C(F)(F)F)c2)cn1,i
CN(C)C/C=C/C(=O)Nc1cccc(C(=O)Nc2cccc(Nc3ncc(Cl)c(-c4c[nH]c5ccccc45)n3)c2)c1,+
O=C(NCc1ccncc1)c1nc2c(o1)CCN(CCCc1ccccc1)CC2,i
COC(=O)c1cc2n(n1)CC(C)(C(=O)NC1CCCCC1)N(Cc1ccccc1Cl)C2=O (stereo not given),i
CCN(CC)CCN1C(=O)c2ccc(-c3ccco3)n2CC1(C)C(=O)NC1CCCCCC1 (stereo not given),i
O=C(Cn1ccc2cc(S(=O)(=O)N3CCCCC3)ccc21)NCCc1c[nH]c2ccccc12,i
COc1cccc(NC(=O)CSc2nnc3[nH]c(=O)c(C)nn23)c1,i
CN1C(=O)c2cc(C(=O)NCc3ccc(F)cc3)nn2CC1(C)C(=O)NC1CCCCC1 (stereo not given),i
Cc1cccc(C(=O)Nc2ccc3c(c2)C(=O)N(C)C2=NCCN23)c1,i
CC(C)NC(=O)c1ccc2c(=O)n(Cc3ccccc3)c3nnc(SCC(N)=O)n3c2c1,i
CC(C)(O)CCc1cccc(C(=O)NCCCc2ccccn2)c1,i
COc1cc(NC(=O)Cn2nc3n(CCc4ccccc4)c(=O)c4ccccc4n3c2=O)cc(OC)c1,i
CN(C)C[C@@H]1CN(C2CCOCC2)C[C@H]1NC(=O)Cc1ccccc1Cl,i
CSc1ccc(C(=O)N2C[C@@H](CN3CCN(C)CC3)[C@@H](CO)C2)cc1,i
Cc1[nH]nc2c1C(c1c(F)cccc1F)C(C#N)=C(N)O2 (stereo not given),i
CNc1cccc(CCOc2ccc3c(c2)CN(CC(F)(F)F)C(=O)[C@H](CC(=O)O)C3)n1,i
CN1C(=O)c2cc(NC(=O)c3ccccc3Cl)ccc2N2CCN=C12,i
CC(C)c1cc(C(=O)N2CC[C@H](CO)[C@H](O)C2)cs1,i
Fc1ccccc1-c1noc(N2CCCCC2)n1,?
COCCCNC(=O)C(C)(C)Oc1nn(Cc2cccnc2)c2ccc(COC)cc12,i
CCC(C)NC(=O)c1ccc2c(=O)n(C(C)C)c3nn(Cc4ccccc4C)c(=O)n3c2c1 (stereo not given),i
CC(C)CCN1CCC2(COc3ccccc3C(=O)N2)C1 (stereo not given),i
O=C(Nc1ccc(Cl)cc1)Nc1cccc(-c2cccc(N3CCCC3)n2)c1,i
CCn1nccc1C(=O)N1CCCC(c2nnc(CN3CCCC3)n2C)C1 (stereo not given),i

# Some of the entries so far, field by field.
> CN1C(=O)c2cc(NC(=O)c3ccccc3Cl)ccc2N2CCN=C12
  Methyltransferases = i
> CC(C)c1cc(C(=O)N2CC[C@H](CO)[C@H](O)C2)cs1
  Methyltransferases = i
> Fc1ccccc1-c1noc(N2CCCCC2)n1
  Methyltransferases = ?
> COCCCNC(=O)C(C)(C)Oc1nn(Cc2cccnc2)c2ccc(COC)cc12
  Methyltransferases = i

# Further compounds follow.
SMILES,Methyltransferases
COc1ccc(CN2C(=O)c3cc4sccc4n3CC2(C(=O)NC2CCCCCCC2)c2ccccc2)cc1 (stereo not given),i
COc1cc(CN2CCN(c3noc(C(C)C)n3)CC2CCO)cc(OC)c1 (stereo not given),i
Cn1cncc1C(=O)N1CCC2(CC1)CNC(C(=O)O)C2 (stereo not given),i
N#Cc1ccc(CN2CCCC3(CC(c4cccnc4)=NO3)C2)cc1 (stereo not given),i
CC(C)(O)[C@@H]1CC[C@]2(CO)[C@@H](O)CC[C@](C)(O)[C@H]2[C@@H]1O[C@@H]1O[C@H](CO)[C@@H](O)[C@H](O)[C@H]1O,i
CCN1C(=O)c2c(C(=O)NCc3cccc(Cl)c3)ncn2CC1(C)C(=O)NC1CCCC1 (stereo not given),i
CCCN1C(=O)c2c(C(=O)NCc3cccc(F)c3)ncn2CC1(C)C(=O)NCc1ccc(C)cc1 (stereo not given),i
CC(=O)N1CCC(C2CCN(C(C)=O)C2)CC1 (stereo not given),i
CCCNc1ccc2ncc(-c3ccc4[nH]ncc4c3)n2n1,+
CC1CC(O)CC(C)(C)C1(O)CCO (stereo not given),i
CCOc1ccc(CN2C(=O)c3cc(-c4ccc(OC)cc4)nn3CC2(C)C(=O)NCc2ccccc2)cc1 (stereo not given),i
Cc1ccc2n1CCN(C(=O)Nc1ccc(F)c(Cl)c1)C2C(C)C (stereo not given),i
COc1ccc(/C=C/C(=O)O[C@H]2[C@H](O[C@H]3[C@@H]4C=CO[C@@H](O[C@@H]5O[C@H](CO)[C@@H](O)[C@H](O)[C@H]5O)[C@@H]4[C@@]4(CO)O[C@@H]34)O[C@@H](C)[C@H](O)[C@H]2OC(C)=O)cc1,i
CCN1CCc2nc(N)oc2CC1,i
Cc1cccc(CN2CC(=O)N(Cc3ccc(F)cc3)c3ccccc3S2(=O)=O)c1,i
Cc1ccc(CN2C(=O)c3cc4ccccc4n3CC2(C)C(=O)NCc2ccccc2)o1 (stereo not given),i
COc1ccccc1NC(=O)CSc1nnc2n(CCc3ccccc3)c(=O)c3ccccc3n12,i
O=C(Nc1ccccc1)c1ccc(Nc2nnc(-c3ccc(O)cc3)c3ccccc23)cc1,?
CC(=O)Oc1ccc(C2Nc3ccc(C)cc3C3C=CCC32)c(OC(C)=O)c1 (stereo not given),i
C=C1CCc2occ(C)c2[C@H]2[C@H]1[C@@]13O[C@@]1(C[C@@H](C)[C@H]3OC(C)=O)[C@H]1O[C@@]21C,i
Cc1cccc(CN2C(=O)c3cc4ccccc4n3CC2(C)C(=O)NCc2ccccc2)c1 (stereo not given),i
CCOCCCN1C(=O)c2cc3ccccc3n2CC1(C)C(=O)NC1CCCC1 (stereo not given),i
O=C1C=CC(O)(/C=C/C(=O)OC[C@H]2O[C@@H](Oc3ccc(O)cc3)[C@H](O)[C@@H](O)[C@@H]2O)C=C1,i
CC1(C)CC[C@]23CO[C@@]4(CCC5[C@@]6(C)CC[C@H](O[C@@H]7OC[C@H](O[C@@H]8O[C@H](CO)[C@@H](O)[C@H](O)[C@H]8O[C@@H]8OC[C@@H](O)[C@H](O)[C@H]8O)[C@H](O)[C@H]7O)[C@@](C)(CO)C6CC[C@@]5(C)[C@]4(C)CC2=O)[C@@H]3C1 (stereo not given in full),i
CC(C)c1noc(-c2cn(C3CCN(C(=O)Cc4ccc(F)cc4)C3)nn2)n1 (stereo not given),i
CC(C)C(C)C(O)C1CC23CC(=O)C4(O)C(=C2CCC3C1C)C=CC1(O)CC(O)CCC14C (stereo not given),i
COC(=O)c1cc2n(n1)CC(C)(C(=O)NC1CCCCCC1)N(c1ccc(Cl)cc1C)C2=O (stereo not given),i
Cc1cc(N2C(=O)c3ccc(-c4ccco4)n3CC2(C)C(=O)NC2CCCC2)ccc1Br (stereo not given),i
CCCn1c(=O)c2ccc(C(=O)NC3CCCC3)cc2n2c(=O)n(Cc3cccc(C)c3)nc12,i
Cn1nc2n(Cc3ccccc3)c(=O)c3ccc(C(=O)NC4CCCC4)cc3n2c1=O,i
CCCN(C)C(=O)c1c(-c2ccc(F)cc2)noc1[C@H](C)O,i
COc1ccc(C2(N(C)C(=O)c3ccc(NC(=O)c4ccco4)cc3)CCOCC2)cc1,i
O=C(Cn1ccc2cc(S(=O)(=O)N3CCCCC3)ccc21)NCc1cccc(Cl)c1,i
Cc1cc2[nH]c(=O)[nH]c2cc1S(=O)(=O)N1CCN(c2cccc(Cl)c2)CC1,i
CC(C)(N)C(=O)N[C@H](COCc1ccccc1)C(=O)N1CCC2(CC1)CN(S(C)(=O)=O)c1ccccc12,i
C=CCn1c(=O)c2ccc(C(=O)NCC(C)C)cc2n2c(=O)n(CC(=O)Nc3ccccc3F)nc12,i
CCc1ccc(S(=O)(=O)N2c3ccccc3CC2c2nnc(C3CCOCC3)o2)cc1 (stereo not given),i
COc1ccccc1CCNC(=O)Cn1ccc2cc(S(=O)(=O)N3CCCCC3)ccc21,i
CCN1C(=O)c2cc3ccccc3n2CC1(C)C(=O)NCC(=O)NCc1ccc(OC)cc1 (stereo not given),i
Cc1cc2[nH]c(=O)[nH]c2cc1S(=O)(=O)N1CCOCC1,i
CCCN1C(=O)c2cc(C(=O)NCc3ccccc3OCC)nn2CC1(C)C(=O)NC1CCCC1 (stereo not given),i
Cc1cccc(NC(=O)CSc2nnc3n(CCc4ccccc4)c(=O)c4ccccc4n23)c1,i
CCNC(=O)Nc1ccc([C@H]2OCC(=O)N(Cc3scnc3C)[C@@H]2CO)cc1,i
Cc1ccc(Cn2c(=O)c3ccccc3n3c(CCC(=O)Nc4cccc(Cl)c4)nnc23)cc1,i
COc1cccc2c1OCC(C(=O)N1CCC(c3noc(C)n3)CC1)C2 (stereo not given),i
COC1CN(c2cccc(F)c2)C12CCN(C(=O)NCC(C)C)CC2 (stereo not given),i
CCCn1c(=O)c2ccc(C(=O)NC3CCCC3)cc2n2c(=O)n(Cc3ccc(F)cc3)nc12,i
O=C1CCN(C(=O)c2cc3ccccc3[nH]2)CCCCCCN1,i
CCn1nnc2c(N3CCOCC3)nc(-c3ccc(NC(=O)Nc4ccc(C(=O)N5CCN(C)CC5)cc4)cc3)nc21,+
Cn1c(=O)c2ccc(C(=O)NC3CCCC3)cc2n2c(=O)n(CC(=O)Nc3ccccc3Cl)nc12,i
CC1=C2C[C@H]3O[C@@]3(C)CCC3O[C@@]3(C)C[C@@]2(O)OC1=O (stereo not given in full),i
C/C(=C/C=C\C=C\Cc1cnco1)[C@@H](O)C(C)(C)C(N)=O,i
CCCn1c(=O)c2ccc(C(=O)NCC(C)C)cc2n2c(=O)n(CC(=O)Nc3cc(F)ccc3F)nc12,i
COc1cccc(CNC(=O)c2ccc3c(=O)nc4c(-c5cccc(C)c5)n[nH]n4c3c2)c1,i
Cc1noc(C)c1-c1cc(-c2ccncc2)cn2cncc12,i
CCN1C(=O)c2c(C(=O)NCCc3ccc(C)cc3)ncn2CC1(C)C(=O)NC1CCCC1 (stereo not given),i
CC(C)NC(=O)c1ccc2c(=O)n(C(C)C)c3nn(CC(=O)NC4CCCC4)c(=O)n3c2c1,i
CC(C)c1ccc(N2C(=O)N[C@@H]3CCN(C(=O)C4CCCC4)[C@@H]3C2=O)cc1,i
CN1C(=O)c2cc(C(=O)NCCc3ccccc3)nn2CC1(C)C(=O)NC1CCCC1 (stereo not given),i
Cc1ccccc1CCN1C(=O)c2ccc(-c3ccco3)n2CC1(C)C(=O)NC1CCCCCC1 (stereo not given),i

# (next part)
SMILES,Methyltransferases
CNC(=O)COC(=O)N1CCC(CCc2ccc(Cl)cc2)CC1,i
CC(C)Cc1cc(C(=O)N2CCc3[nH]nc(-c4ccccc4)c3C2)nc(=O)[nH]1,i
CCn1c(=O)c2ccnn2c2ccc(C(=O)O)cc21,i
CN(Cc1ccc(-c2ccccc2)cc1)C(=O)C1CC1,i
CC(CCC1(O)OC2CC3C4CC=C5CC(O[C@@H]6O[C@H](CO)[C@@H](O[C@@H]7O[C@H](CO)[C@@H](O)[C@H](O)[C@H]7O)[C@H](O)[C@H]6O[C@@H]6O[C@@H](C)[C@H](O)[C@@H](O)[C@H]6O)CCC5(C)C4CCC3(C)C2C1C)CO[C@@H]1O[C@H](CO)[C@@H](O)[C@H](O)[C@H]1O (stereo not given in full),i
Cc1cc(C(=O)N[C@H]2[C@H](O)[C@H](O)C[C@@H]2c2ccc(N3CCOCC3)nc2)n(C)n1,i
CC(C)N(Cc1nccn1C)C(=O)c1cc(Cn2cnc3ccccc32)[nH]n1,i
CC(C)OCCCn1c(=O)c2ccccc2n2c(CCC(=O)NCc3ccc(Cl)cc3)nnc12,i
C=C1C(=O)O[C@@H]2C[C@]3(C)[C@@H](CCC(C)=O)[C@@H]3C[C@H]12,i
C[C@]12C=CC(=O)C=C1CC[C@@H]1[C@@H]2[C@@H](O)C[C@@]2(C)[C@H]1CC[C@]2(O)C(=O)COC(=O)CCC(=O)O,i
O=C(O)CC[C@@H]1CN(C(=O)c2ccc(CO)o2)CC[C@@H]1N1CCOCC1,i
COc1ccc(C(=O)OC2C3C=COC(OC4OC(CO)C(O)C(O)C4O)C3C3(CO)OC23)cc1OC (stereo not given),i
O=S(=O)(Nc1cccc(Br)c1)c1ccc2[nH]c3c(c2c1)CCCC3,i
O=C(Nc1ccccc1Br)N1Cc2c(sc3c2CCCC3)-n2cccc2C1c1ccccc1 (stereo not given),i

# Entries from the list above with a cyano group:
SMILES,Methyltransferases
Cc1[nH]nc2c1C(c1c(F)cccc1F)C(C#N)=C(N)O2 (stereo not given),i
N#Cc1ccc(CN2CCCC3(CC(c4cccnc4)=NO3)C2)cc1 (stereo not given),i

# At a glance, part of the list above.
SMILES,Methyltransferases
COc1ccc(N2C(=O)c3ccc(-c4ccco4)n3CC2(C)C(=O)NCc2ccc(Cl)cc2)cc1OC (stereo not given),i
CCCn1c(=O)c2cc(Cl)ccc2n2c(=O)n(CC(=O)c3ccc(C)cc3)nc12,i
COC(=O)C[C@@H]1C(C(=O)O)=CO[C@@H](O[C@@H]2O[C@H](CO)[C@@H](O)[C@H](O)[C@H]2O)/C1=C\COC(=O)/C=C\c1ccccc1,i
O=C(CCc1nnc2n(Cc3ccc(Cl)cc3)c(=O)c3ccccc3n12)NCCc1c[nH]c2ccccc12,i
